GIRK2 activ – GIRK2 channel activation; P48051; HEK293-GIRK2 thallium flux, Thallos fluorescence; calls only for hits at 25 µM; hit rate 0.05% among 63,000; AID 1259325;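 active means among the strongest 0.2% of first-round signals and kept after retests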;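 further: first round at about 10 µM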
Target sequence (P48051 whole entry, looked up): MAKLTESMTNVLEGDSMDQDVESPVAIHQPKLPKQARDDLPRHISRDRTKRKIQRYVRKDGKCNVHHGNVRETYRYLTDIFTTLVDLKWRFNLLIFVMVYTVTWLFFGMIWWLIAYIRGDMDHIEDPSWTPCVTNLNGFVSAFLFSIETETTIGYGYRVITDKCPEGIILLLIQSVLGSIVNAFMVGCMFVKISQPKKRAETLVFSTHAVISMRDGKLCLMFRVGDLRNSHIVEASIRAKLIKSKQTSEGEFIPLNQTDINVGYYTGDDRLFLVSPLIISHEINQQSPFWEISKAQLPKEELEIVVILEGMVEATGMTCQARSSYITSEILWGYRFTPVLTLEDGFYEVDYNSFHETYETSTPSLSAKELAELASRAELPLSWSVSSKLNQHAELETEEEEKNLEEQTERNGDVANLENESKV
Calls only; i = inactive. Not all compounds are listed, so the mix of outcomes need not match the whole.

SMILES | GIRK2 activ
Cc1cn2c3c(=O)n(Cc4ccc(Br)cc4)c(=O)n(C)c3nc2n1CCOCCO | i
CCOC(=O)C1=C(c2ccccc2)NC(=O)NC1c1ccc(OC)c(OC)c1 (centres undefined) | i
CC(=O)N(C)c1ccc(OCC(O)CN(Cc2ccco2)S(=O)(=O)c2ccccc2)cc1 (centres undefined) | i
COc1ccc(S(=O)(=O)CCC(=O)N2CC(Oc3nc4ccccc4s3)C2)cc1 | i
O=C(c1nnn(-c2ccc(F)cc2)n1)N1CCN(S(=O)(=O)C2CC2)CC1 | i
Cc1cc(CCNC(=O)c2ccc3ncsc3c2)on1 | i
CCOC(=O)c1cccc(NC(=O)c2sccc2S(=O)(=O)N2CCN(c3ccccc3)CC2)c1 | i
O=C(CSc1cc(-n2cccn2)ncn1)Nc1ccc(Cl)c(Cl)c1 | i
Cc1cn2c3c(=O)n(CC(=O)OCc4ccccc4)c(=O)n(C)c3nc2n1C(C)c1ccccc1 (centres undefined) | i
CC(C)c1nccn1CC1CCN(C(=O)Cn2cnc3ccccc3c2=O)CC1 | i
Cc1c(C(=O)Nc2ccc(C(=O)O)cc2)nnn1-c1cccc(C(F)(F)F)c1 | i
COCCCn1c(C(=O)NC2CCS(=O)(=O)C2)cc2c(=O)n3ccccc3nc21 (centres undefined) | i
Cc1cccc(C(=O)NC2CCN(C(=O)c3cn(-c4cccc(Cl)c4)nn3)CC2)c1 | i
COc1ccc(-n2nnc3c(N4CCN(C(=O)c5ccccc5F)CC4)ncnc32)cc1 | i
O=S(=O)(Cc1ccc(C(F)(F)F)cc1)N1CCC(c2ccccc2)C1 (centres undefined) | i
O=S(=O)(c1ccc(Cl)cc1)N1CCCN(S(=O)(=O)c2ccc(Cl)cc2)CC1 | i
COc1ccc2c(c1)CCN(C(=O)C1CSCCC(=O)N1)C2 (centres undefined) | i
COc1ccc(-c2cc3c(=O)n(CC(=O)N4CCN(c5ccccc5F)CC4)ccn3n2)cc1OC | i
CC1OC(OC2C(OC3C(O)C(C(=O)O)OC(OC4CCC5(C)C(CCC6(C)C5CCC57OCC8(CCC(C)(C(=O)O)CC85)C(O)CC67C)C4(C)C)C3OC3OC(CO)C(O)C(O)C3O)OC(CO)C(O)C2O)C(O)C(O)C1O (centres undefined) | i
O=C(NCCC(O)c1cccs1)C(=O)Nc1cc2c3c(c1)CCN3C(=O)CC2 (centres undefined) | i
Cc1ccc(NC(=O)Cn2ncc(SCC(N)=O)c(Cl)c2=O)cc1 | i
COc1ccc(Cn2c(CO)cnc2SCC(=O)Nc2cccc3ccccc23)cc1 | i
Cc1cc(CNC(=O)COc2cccc3c2OC(C)(C)C3)c(C)o1 | i
Cc1nc(-c2cccc(NC(=O)C3COCC(=O)N3Cc3ccccc3)c2)cs1 (centres undefined) | i
CC1CCc2c(sc3nc(CCC(=O)N4CCN(C5CCCCC5)CC4)[nH]c(=O)c23)C1 (centres undefined) | i

Going on with the list:
SMILES | GIRK2 activ
O=C(CSc1nc2ccccc2o1)N1CCN(Cc2nc3ccccc3[nH]2)CC1 | i
COc1ccc(CNC(=O)CCn2cnc3c([nH]c4ccccc43)c2=O)cc1 | i
Cc1n[nH]c(=O)c2nn(-c3cccc(Cl)c3)c(C)c12 | i
Cc1nn(C2CCS(=O)(=O)C2)c(C)c1N1CCN(C(=O)c2cc3ccccc3[nH]2)CC1 (centres undefined) | i
O=C(/C=C/c1ccc2c(c1)OCCO2)c1cccc(O)c1 | i
c1ccc(CSc2nnc(N3CCN(c4ccccc4)CC3)s2)cc1 | i
N#Cc1ccc2c(=O)c(S(=O)(=O)c3ccc(F)c(F)c3)c[nH]c2c1 | i
CCOC(=O)CCn1c(=O)c2c(nc3n(-c4ccccc4CC)c(C)cn23)n(C)c1=O | i
CN(C)S(=O)(=O)c1ccc(C(=O)Oc2ccc(/C=C/c3ccncc3)cc2)cc1 | i
O=S(=O)(Cc1ccccc1)N1CCC(Oc2nc3ccccc3s2)CC1 | i
CC(C)(C)OC(=O)NC(CO)CC1CCC1 (centres undefined) | i
CS(=O)(=O)N1CCC(n2c(=O)c(Oc3ccc(F)cc3F)cc3cnc(NC4CCOCC4)nc32)CC1 | i
COC(=O)c1ccc(C(=O)Nc2sc3c(c2-c2nc4ccccc4s2)CCN(C(C)C)C3)cc1 | i
COc1cc2c(cc1OC)CN(C(=O)Cc1noc3ccccc13)CC2 | i
COc1ccc(-c2csc(CN3CCN(C(=O)c4cccc(Cl)c4)CC3)n2)cc1 | i
O=C(CSc1nc2ncccc2c(=O)n1Cc1ccc(F)cc1)Nc1ccc(Br)cc1 | i
COc1ccc(CCC(=O)N2C3CCC2COC3)cc1 | i
COc1cc2nc(SCc3cc(=O)n4ccccc4n3)n3nc(-c4ccccc4)nc3c2cc1OC | i
CC(=O)Nc1cnc(N2CCN(C)CC2)nc1 | i
O=C(NCCN1CCN(c2ccccc2F)CC1)C(=O)NCc1ccc2c(c1)OCO2 | i
CCn1c(-n2nc(C)cc2C)nc2c1c(=O)n(CC(=O)OCc1ccccc1)c(=O)n2C | i
N#Cc1ccc(NC(=O)c2cccc(S(=O)(=O)N3CCOCC3)c2)cc1 | i
Cc1cc(C)n(-c2cc(SCC(=O)N3CCN(c4ccccc4F)CC3)ncn2)n1 | i
Cn1c(=O)c2c(nc3n2CCN3c2ccc(OCC(N)=O)cc2)n(C)c1=O | i
O=C(c1ccco1)N1CCC(Oc2cnccn2)CC1 | i

Structural class, the entries above containing two or more sulfur atoms.
SMILES | GIRK2 activ
COc1ccc(S(=O)(=O)CCC(=O)N2CC(Oc3nc4ccccc4s3)C2)cc1 | i
CCOC(=O)c1cccc(NC(=O)c2sccc2S(=O)(=O)N2CCN(c3ccccc3)CC2)c1 | i
O=S(=O)(c1ccc(Cl)cc1)N1CCCN(S(=O)(=O)c2ccc(Cl)cc2)CC1 | i
c1ccc(CSc2nnc(N3CCN(c4ccccc4)CC3)s2)cc1 | i
O=S(=O)(Cc1ccccc1)N1CCC(Oc2nc3ccccc3s2)CC1 | i
COC(=O)c1ccc(C(=O)Nc2sc3c(c2-c2nc4ccccc4s2)CCN(C(C)C)C3)cc1 | i

(more compounds)
SMILES | GIRK2 activ
Cc1cc(C(=O)Nc2ccc(CC(=O)NCc3cccs3)cc2)c(C)o1 | i
COc1ccc(Cl)cc1S(=O)(=O)N(CCc1cccs1)Cc1ccco1 | i
CCn1nc(C(=O)Nc2cc(C)nn2-c2nc3ccc(OC)cc3s2)cc1C | i
COc1ccc(CCC(=O)N2CCC(CSc3ccc(OC)cc3)CC2)cc1 | i
CCCc1cc(C(=O)OC)c(N2C(=O)CC(Sc3ccccc3C(=O)O)C2=O)s1 (centres undefined) | i
COc1ccc(CCNC(=O)c2c3c(nn2C2CCS(=O)(=O)C2)CCC3)cc1 (centres undefined) | i
CCOc1ccc(N2CCCn3c2nc2c3c(=O)n(Cc3ccccc3F)c(=O)n2C)cc1 | i
COc1ccc(C)cc1N1CCn2c1nc1c2c(=O)n(Cc2cccc(C)c2)c(=O)n1C | i
CCOc1cccc2sc(N(CC3CCCO3)C(=O)c3ccc(F)cc3F)nc12 (centres undefined) | i
CCn1c(=O)c(C(=O)Nc2ccc3c(c2)OCO3)c(O)c2ccccc21 | i
COc1cc(/C=C/C(=O)Nc2ccc3c(c2)C(=O)Nc2ccccc2O3)cc(OC)c1OC | i
COc1ccc(C(=O)N2CCC(Oc3ccccn3)CC2)cc1OC | i
COc1ccc(S(=O)(=O)N2CCCC2)cc1C | i
CCOC(=O)CCC(=O)Nc1nnc(-c2cc(C)oc2C)o1 | i
CCOc1ccc(S(=O)(=O)NCCN2CCN(c3ccccc3F)CC2)cc1F | i
O=C(NCCOc1ccc(-c2ccc(F)cc2)nn1)C(c1ccccc1)c1ccccc1 | i
O=C(NCC1CCCCC1)c1ccc(Cn2ccnc2)cc1 | i
Cc1cc(=O)cc(C)n1-c1cccc(O)c1 | i
CSc1cccc(NC(=O)Cn2cccc(-c3nc(-c4ccccc4)no3)c2=O)c1 | i
COc1ccc(S(=O)(=O)Nc2ccc3c(c2)CCCN3S(C)(=O)=O)cc1C | i
COCCN(Cc1ccoc1)C(=O)Nc1cccs1 | i
COC(=O)Cn1c(=O)c2c(nc3oc(-c4ccccc4)cn32)n(C)c1=O | i
CCN1CCN(C(=O)c2nccnc2-c2nc3ccccc3s2)CC1 | i
O=C(CSc1nc2ccc([N+](=O)[O-])cc2s1)c1cccc(Cl)c1 | i
O=C(Nc1cccc(Cl)c1)Nc1nc(CCC(=O)N2CCCCC2)cs1 | i

Following part
SMILES | GIRK2 activ
C/C=C/CN1CCCn2c1nc1c2c(=O)n(C/C=C/C)c(=O)n1C | i
COc1ccc(OCC(O)Cn2c(NCC(C)O)nc3c2c(=O)[nH]c(=O)n3C)cc1 (centres undefined) | i
COc1ccccc1N1CCN(CCNC(=O)C(=O)Nc2cc(C)on2)CC1 | i
C=C(C)C1Cc2c(cc(O)c3c2OC2COc4cc(OC)c(OC)cc4C2(O)C3=O)O1 (centres undefined) | i
CCc1ccccc1NC(=O)C1CCN(c2ccc(S(=O)(=O)c3ccc(C)cc3)nn2)CC1 | i
O=C(CC(c1ccccc1)c1ccccc1)Nc1cc(N2CCOCC2)ncn1 | i
Cc1nc(OCC(=O)Nc2ccc(Br)cc2)c2ccccc2n1 | i
Cc1cn2c3c(=O)n(Cc4ccccc4F)c(=O)n(C)c3nc2n1CCCO | i
O=C(CN1C(=O)c2ccccc2C1=O)NCCCN1CCOCC1 | i
CC(O)(CCc1ccccc1)CNC(=O)c1cccc2ccccc12 (centres undefined) | i
CS(=O)(=O)N1CCC(C(=O)Nc2ccc(-n3nnc(C(N)=O)n3)cc2)CC1 | i
COC(=O)C(C)Oc1ccc2c(c1)O/C(=C\c1ccc(OC)c(OC)c1OC)C2=O (centres undefined) | i
COc1ccc(C(=O)N2CCC(C(=O)Nc3cc(C)on3)CC2)cc1 | i
C#CCN(C)Cc1ccccc1 | i
CN=S(C)(=O)c1ccccc1 (centres undefined) | i
COc1nn(C)cc1C(=O)Nc1ccc(C(=O)N2CCN(S(C)(=O)=O)CC2)cc1 | i
COc1ccccc1N1CCN(CCNS(=O)(=O)c2ccc(C)c(C)c2)CC1 | i
O=C(Cn1nnn(-c2ccc(NC(=O)C3CC=CCC3)cc2)c1=O)NCc1ccco1 (centres undefined) | i
CCCCc1ccc(NC(=O)Cn2cnc3c(c2=O)CN(Cc2ccccc2)CC3)cc1 | i
O=C(/C=C/c1ccco1)N1CCC2(CC1)OCCCO2 | i
Cc1noc(CNC(=O)NCCc2ccccc2)n1 | i
CCc1cccc(C)c1NC(=O)COc1cc(C)nc(N2CCCC(C)C2)n1 (centres undefined) | i
COc1ccc(-c2noc(CN3N=NC4C(=O)N(c5ccc(C(C)C)cc5)C(=O)C43)n2)c(OC)c1 (centres undefined) | i
COc1cccc(N2CCCn3c2nc2c3c(=O)n(CC(=O)O)c(=O)n2C)c1 | i
COC(=O)c1ccc(NC(=O)C(=O)NCC2(c3ccc(F)cc3)CC2)cc1 | i

Part of the list above, set out differently:
GIRK2 activ | molecule
i | COc1ccccc1N1CCN(CCNS(=O)(=O)c2ccc(C)c(C)c2)CC1
i | O=C(Cn1nnn(-c2ccc(NC(=O)C3CC=CCC3)cc2)c1=O)NCc1ccco1 (centres undefined)
i | CCCCc1ccc(NC(=O)Cn2cnc3c(c2=O)CN(Cc2ccccc2)CC3)cc1

(cont.)
SMILES | GIRK2 activ
COc1ccc(S(=O)(=O)c2cn(C)c3cc(N4CCCC(C)C4)c(F)cc3c2=O)cc1 (centres undefined) | i
Cn1nc(-c2ccccc2)cc1C(=O)N1CCc2nc(NC(=O)c3cccs3)sc2C1 | i
Cc1c(C(=O)NC2CCCC2)nnn1-c1ccc(C(C)C)cc1 | i
COc1ccc2nc(OC3CN(C(=O)c4cccc(Cl)c4)C3)sc2c1 | i
Cc1cc(NCCN2CCOCC2)n2nc(C)c(-c3ccc(Cl)cc3)c2n1 | i
CSCCC(C)(O)CNC(=O)C(=O)Nc1cccc(N2CCCC2=O)c1 (centres undefined) | i
COc1ccc(OCC(O)Cn2c(NCCN3CCOCC3)nc3c2c(=O)n(C)c(=O)n3C)cc1 (centres undefined) | i
CN(c1ccccc1)S(=O)(=O)c1ccc(C(=O)Nc2ccccc2F)cc1 | i
N#Cc1nc(-c2cccs2)oc1N1CCN(C(=O)c2ccco2)CC1 | i
CC(=O)Nc1nnc(/C(C#N)=C/c2ccc(-c3cc(Cl)ccc3Cl)o2)s1 | i
CCCNC(=O)C(=O)c1cn(CC(=O)N2CCOCC2)c2ccccc12 | i
COc1ccc(C2CCN(C(=O)c3ccc4c(c3)OCO4)C2)cc1 (centres undefined) | i
COc1ccc(C(CNS(=O)(=O)c2cccs2)N2CCN(C)CC2)cc1 (centres undefined) | i
O=C(/C=C/c1ccccc1)NCC1CCN(Cc2ccco2)CC1 | i
COc1ccccc1N1CCN(c2ccnc(SCC(=O)Nc3c(C)cc(C)cc3C)n2)CC1 | i
CS(=O)(=O)N1CCC(C(=O)N2CCC(Cn3cnc4ccccc43)CC2)CC1 | i
Cn1nc(CNC(=O)c2ccccc2Br)cc1-c1ccco1 | i
COC(=O)c1ccc2c(=O)n(CCC(=O)NC(C)C)c(=S)[nH]c2c1 | i
O=C(Cn1nc2c(SCc3ccccc3)nccn2c1=O)NCc1ccc(Cl)cc1 | i
O=C(NCc1ccccc1)C(=O)Nc1ccc(N2CCCS2(=O)=O)cc1 | i
O=C1/C(=C/c2ccncc2)Oc2cc(OCc3ccccc3F)ccc21 | i
Cn1cccc1C(CNC(=O)Nc1ccc(Cl)c(Cl)c1)N1CCOCC1 (centres undefined) | i
O=C(CSc1ncccc1-c1nc(-c2ccc(F)cc2)no1)N1CCCC1 | i
NS(=O)(=O)c1ccc(C(=O)Nc2cnc(N3CCOCC3)nc2)cc1 | i
O=C(c1ccco1)N(CCn1cccn1)c1nc2ccccc2s1 | i
COc1cccc(CNC(=O)Cn2cnc3c(sc4ccccc43)c2=O)c1 | i
